Screens from PubChem BioAssay.
PINK1 expr mod – PINK1 expression modulation; Potency, µM (highest dose often 76.6 µM), for inactives: at the top dose activation (PINK1 increase), actives largely listed as activators; 410,000 compounds, 0.2% hits; AID 624263; PINK1 immunofluorescence, high-content cytometry, 24 h; active = well fitted activation curve with a large enough effect; inconclusive = small, poorly fitted or top-dose-only effect; inactive = flat fitted curve, though single readings scatter; cell line not stated here;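 further: potency means the concentration at half of the fitted maximal effect; % of control where 0% means no effect; nearly all actives have a fitted effect of over 65% in size; a mitochondrial uncoupler was the plate control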
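PINK1 protein, normally rapidly degraded, was detected by immunofluorescence after 24 hour compound treatment of a stable cell line. Titration data (5 concentrations) came from laser-scanning cytometry, with CCCP-treated wells as controls.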
TRPML1 ag – agonists of human TRPML1 channel. Q9GZU1. TRPML1-expressing cells, Ca2+ dye fluorescence, FDSS; host cell line not named in the record; reference of the full effect not given here. activation, % (no concentration beside the values). 410,000 compounds, 0.12% hits; in the data active = activation above about 50%; inconclusive = about 30% to 50%; inactive = below about 30%; further: 0% is about no effect; the text of the record puts the active cut at 80%
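Kinetic FDSS Ca2+ read in Tet-induced TRPML1-DL cells (ABD Ca8 dye plus quencher, 45-90 min RT loading): baseline, then compound, then 110 s agonist window; EC80 agonist 54-4 at 4uM final added afterwards for a 110 s antagonist window.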
TRPML1 blocker – human mucolipin-1 channel inhibition; TRPML1-inducible cells, Ca2+ dye fluorescence, FDSS; stronger effect = lower value; inhibition of EC80 agonist-evoked calcium signal; activity change, negative = inhibition, % (concentration not given with the values); 390,000 compounds, 0.02% hits; in the data active means activity change below about -50%; inconclusive means about -30% to -50%; inactive means above about -30%;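 further: stimulus is agonist 54-4 at its EC80 concentration; on the % scale 0 is the no-effect control and ±100 the full control effect; the text of the record puts the active cut at -80%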
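Tet-induced TRPML1-DL cells loaded with Ca8 no-wash calcium dye were read kinetically on FDSS. Compound addition was followed by EC80 agonist 54-4 (4 uM final); inhibition was read over 110 s.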
D2 PAM – positive allosteric modulators of human D2 dopamine receptor. P14416. DiscoveRx D2 beta-arrestin cells, luminescence, 90 min; 100% = 57 uM dopamine signal. potentiation, % (test concentration not listed). 360,000 compounds, 0.23% hits. AID 624464; active = potentiation of 50% or more; inconclusive = 30% to 50%; inactive = 30% or less;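 further: compound concentration not given in the record; tested on top of an EC20 dose of dopamine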
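PathHunter D2 cells, attached overnight at 37 deg C, received compound in DMSO plus dopamine at EC20 (50 nM final) for 90 min at 37 deg C. Beta-arrestin recruitment was read as luminescence after 1 h with detection reagent at ambient temperature.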
D2 agonist – agonists of human D2 dopamine receptor (beta-arrestin). DiscoveRx PathHunter D2 beta-arrestin, luminescence, 90 min; 100% = 57 uM dopamine signal. 360,000 compounds, 0.084% hits. activation, % (concentration not given with the values); in the data active = activation above about 40%; inconclusive = about 15% to 40%; inactive = below about 15%; further: the text of the record calls up to 30% inactive
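Agonist mode: compounds alone added to overnight-plated D2 PathHunter cells for 90 min at 37 C, with 57 uM final dopamine (EC100) defining full response. Beta-arrestin recruitment detected by chemiluminescent reagent, read after 1 h at ambient temperature.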
Six1-Eya2 inh – inhibitors of human Six1/Eya2 interaction. AID 651725. AlphaScreen GST-Six1/His-Eya2 binding, biochemical; stronger effect = lower value; control for the full effect not named in the record. activity change, % (no concentration beside the values). Q15475+O00167. 360,000 compounds, 0.56% hits; in the data active = activity change below about -65%; inconclusive = about -30% to -65%; inactive = above about -30%; further: on the % scale 0 is the no-effect control and ±100 the full control effect
Target sequence (O00167 whole entry, looked up): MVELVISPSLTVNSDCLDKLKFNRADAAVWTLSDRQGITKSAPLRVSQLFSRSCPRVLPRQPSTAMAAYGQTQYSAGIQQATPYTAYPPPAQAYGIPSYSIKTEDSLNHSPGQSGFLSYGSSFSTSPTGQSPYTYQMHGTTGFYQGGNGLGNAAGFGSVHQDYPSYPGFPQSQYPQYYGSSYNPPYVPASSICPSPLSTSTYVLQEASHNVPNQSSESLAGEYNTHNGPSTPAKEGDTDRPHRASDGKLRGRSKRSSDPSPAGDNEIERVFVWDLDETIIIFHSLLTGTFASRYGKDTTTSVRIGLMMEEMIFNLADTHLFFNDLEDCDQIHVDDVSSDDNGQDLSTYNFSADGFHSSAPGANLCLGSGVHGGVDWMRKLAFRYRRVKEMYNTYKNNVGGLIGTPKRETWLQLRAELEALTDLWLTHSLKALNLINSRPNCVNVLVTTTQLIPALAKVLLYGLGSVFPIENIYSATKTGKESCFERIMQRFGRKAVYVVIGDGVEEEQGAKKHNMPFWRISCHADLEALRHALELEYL
Target sequence (Q15475 whole entry, looked up): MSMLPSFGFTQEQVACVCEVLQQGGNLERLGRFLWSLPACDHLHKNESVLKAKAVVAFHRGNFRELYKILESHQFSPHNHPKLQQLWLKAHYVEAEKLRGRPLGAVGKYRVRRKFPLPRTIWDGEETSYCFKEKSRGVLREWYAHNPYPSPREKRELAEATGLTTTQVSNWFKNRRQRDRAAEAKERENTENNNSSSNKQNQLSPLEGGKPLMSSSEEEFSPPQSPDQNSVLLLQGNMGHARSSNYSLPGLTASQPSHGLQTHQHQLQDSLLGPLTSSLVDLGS
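GST-Six1 + His-Eya2 (5X stock: 250/500 nM); Tris pH 8.0, 300 mM NaCl, 0.05% BSA, 0.02% Tween 20; GSH donor/Ni acceptor beads; 1 h 37 °C dark; AlphaScreen readout.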
Numbers without * were called inactive; u = inconclusive; x = no result given; & = joins results of further samples; [ ] = dose if it differs, or a comment.

SMILES	PINK1 expr mod	TRPML1 ag	TRPML1 blocker	D2 PAM	D2 agonist	Six1-Eya2 inh
N=c1c(S(=O)(=O)c2ccc(Cl)cc2)cc2c(=O)n3ccccc3nc2n1C1CCCC1	2.4%	1.7	32	-3	-0.4	5
CC(OC(=O)c1ccc(NS(=O)(=O)c2cccs2)cc1)C(=O)N(C)C1CCCCC1 (configuration not stated)	0.3%	3.4	6	-11	-1.9	10
CCC(C)C(NC(=O)OC(C)(C)C)C(=O)NC(Cc1ccccc1)C(=O)OC (configuration not stated)	-0.6%	0.1	22	-13	-1.4	0
CCCCSc1nnc(-c2ccc(OC)cc2)n1C	0.8%	-0.1	5	-2	0.7	8
COc1ccc(NC(=O)COC(=O)CN2C(=O)C3CCCCC3C2=O)cc1 (configuration not stated)	0.5%	-0.5	3	-9	-0.9	3
Cc1ccc(-n2c(N)c(S(=O)(=O)c3ccccc3)c3nc4ccccc4nc32)cc1	5.5%	0.0	59	-6	-9.1	-1
C=CCNc1nc(NCCO)nc(N2CCCC2)n1	2.9%	-0.8	8	-7	-0.8	4
Cc1ccc(S(=O)(=O)C2(C(=O)Nc3ccc(Cl)c(C(F)(F)F)c3)CC2)cc1	u	5.1	41	x	x	x
COC(=O)c1cc(-c2ccc(Cl)cc2)n[nH]1	0.6%	0.7	-12	4	-3.0	5
CCN1C(=O)C(C(=O)Nc2ccc(OC)cc2)C2CC1(C)Oc1ccccc12 (configuration not stated)	-1.4%	1.8	92	-11	-6.7	-2
Cc1ccc2onc(CC(=O)N3CCN(c4cc(Cl)ccc4C)CC3)c2c1	0.2%	4.9	20	x	x	x
Cc1ccc(NCc2ccccc2OCc2ccccc2F)cc1	12%	2.3	37	-6	-5.7	-28
Cc1nc(NS(=O)(=O)c2ccccc2)sc1C(=O)NNS(=O)(=O)c1ccccc1	0.8%	-0.1	5	-5	-0.5	7
COc1ccc(NC(=O)COc2ccccc2)cc1Cl	-1.2%	-0.4	37	-7	0.2	-5
Cc1ccc(Cn2c(C(=O)O)c(CNC3CCCCC3)c3ccc(C)cc32)cc1	-0.9%	-0.6	-4	x	x	x
CC(=O)OCc1c(C(F)(F)F)nn(C)c1Oc1ccccc1	-4.5%	4.3	8	-5	-2.4	11
Cc1cc(NO)c(C(C)C)cc1N=O	-1.6%	0.5	3	-12	-1.3	5
CCCCn1c(N)c(N(CCOC)C(=O)c2ccc(C)o2)c(=O)[nH]c1=O	4.3%	-0.3	-9	-31	1.9	-5
O=C(Nc1ccc(Cl)cc1)c1ccc(-n2cncn2)c([N+](=O)[O-])c1	0.0%	-0.1	1	12	5.1	-9
O=C(Cn1cnc2c(nnn2-c2ccccc2)c1=O)N1CCC(Cc2ccccc2)CC1	-1.7%	0.1	30	-9	-0.1	0
Cc1c(/C=N/Nc2nc3ccccc3[nH]2)c2ccccc2n1C	9.0%	0.0	17	-6	u	u
CCC1(c2ccccc2)NC(=O)N(CC(=O)Nc2ccc3c(c2)OCO3)C1=O (configuration not stated)	1.5%[38.3 µM]	-0.3	-18	-8	-2.9	-1
CCN(CC)C(=O)CSc1nnc(-c2cc(-c3ccc(Cl)cc3)nc3ccccc23)o1	0.6%	-0.3	-10	-9	-6.4	0
CCNC(=O)C1CCCN1S(=O)(=O)c1ccc2ccccc2c1 (configuration not stated)	1.8%	0.1	-18	-4	-9.0	16
Cn1c(=S)c2[nH]c(SCc3cccnc3)nc2n(C)c1=O	-4.7%	0.1	9	-10	2.9	3
CSCc1ccc(C(=O)OCc2nc3ccccc3s2)o1	-0.5%	2.3	-5	-6	-2.5	-15
O=C1C(=Cc2ccc(F)cc2)CCc2ccccc21	1.6%	-0.5	x	x	x	15
CCc1nc2ccc(C(=O)NCCc3ccccn3)cn2c1N(CCC(C)C)CCN(C)C	-0.6%	-0.4	x	-6	-6.4	4
CN(C)S(=O)(=O)c1cc(NC(=O)COC(=O)c2nc(Cl)ccc2Cl)ccc1Cl	-1.7%	1.9	14	-3	-2.5	-6
O=C(C[N+]1(CC#Cc2ccccc2)CCOCC1)c1ccccc1	4.7%	1.8	7	-12	-8.1	0
Cc1ccc(C)c(CN2C(=O)N(c3cc(Cl)ccc3C)S(=O)(=O)c3ccccc32)c1	-1.5%	-0.7	-1	x	x	x
CS(=O)(=O)NN1C(=O)c2ccccc2NC12CCCC2	-2.4%	-0.7	9	-2	0.0	10
O=C(COc1cccc2ccccc12)N1c2ccccc2CCc2ccccc21	-1.9%	3.7	26	0	-3.6	-8
Fc1cccc(-n2ncc3c2ncn2nc(-c4ccccc4Cl)nc32)c1	1.0%	-0.4	14	x	x	x
CCc1cccc(C)c1NC(=O)c1cc(CN2CCCC2)on1	-1.3%	0.4	6	x	x	x
COC[C@H]1CCCN1[C@H]1CS(=O)(=O)N[C@@H]1COCc1ccccc1	-1.2%	-0.5	x	-9	-3.3	13
COc1ccc(N2C(=O)CSC2c2ccccc2)cc1 (configuration not stated)	-1.0%	1.0	-20	6	7.9	1
Cc1cccn2c(=O)c3cc(C(=O)N4COCC4(C)C)sc3nc12	0.2%	0.6	-8	-3	-1.4	0
Cc1cc(=O)[nH]c2nnc(SCc3cccc(C(F)(F)F)c3)n12	18%	1.0	-1	x	x	x
Cc1[nH]n(-c2ccccc2)c(=O)c1C(c1ccc(O)c([N+](=O)[O-])c1)c1c(C)[nH]n(-c2ccccc2)c1=O	0.2%	0.0	19	-22	-8.5	-6

Looked up by structure from above (seven):
SMILES	PINK1 expr mod	TRPML1 ag	TRPML1 blocker	D2 PAM	D2 agonist	Six1-Eya2 inh
Cc1cc(=O)[nH]c2nnc(SCc3cccc(C(F)(F)F)c3)n12	18%	1.0	-1	x	x	x
Cc1[nH]n(-c2ccccc2)c(=O)c1C(c1ccc(O)c([N+](=O)[O-])c1)c1c(C)[nH]n(-c2ccccc2)c1=O	0.2%	0.0	19	-22	-8.5	-6
Cc1cccn2c(=O)c3cc(C(=O)N4COCC4(C)C)sc3nc12	0.2%	0.6	-8	-3	-1.4	0
Cc1ccc(C)c(CN2C(=O)N(c3cc(Cl)ccc3C)S(=O)(=O)c3ccccc32)c1	-1.5%	-0.7	-1	x	x	x
CSCc1ccc(C(=O)OCc2nc3ccccc3s2)o1	-0.5%	2.3	-5	-6	-2.5	-15
CCNC(=O)C1CCCN1S(=O)(=O)c1ccc2ccccc2c1 (configuration not stated)	1.8%	0.1	-18	-4	-9.0	16
CCc1nc2ccc(C(=O)NCCc3ccccn3)cn2c1N(CCC(C)C)CCN(C)C	-0.6%	-0.4	x	-6	-6.4	4

Record cards, from the list above. Order of values: PINK1 expr mod, TRPML1 ag, TRPML1 blocker, D2 PAM, D2 agonist, Six1-Eya2 inh
O=C1C(=Cc2ccc(F)cc2)CCc2ccccc21 reads 1.6%, -0.5, x, x, x, 15
Cc1cc(=O)[nH]c2nnc(SCc3cccc(C(F)(F)F)c3)n12 reads 18%, 1.0, -1, x, x, x
Cn1c(=S)c2[nH]c(SCc3cccnc3)nc2n(C)c1=O reads -4.7%, 0.1, 9, -10, 2.9, 3
Cc1cccn2c(=O)c3cc(C(=O)N4COCC4(C)C)sc3nc12 reads 0.2%, 0.6, -8, -3, -1.4, 0

Next section:
SMILES	PINK1 expr mod	TRPML1 ag	TRPML1 blocker	D2 PAM	D2 agonist	Six1-Eya2 inh
O=c1c2c3c(sc2nc2n1CCCC2)CCCC3	0.8%	1.9	-5	0	-0.9	4
COc1ccccc1NC(=O)NC1CC(=O)N(c2ccc3c(c2)OCCO3)C1 (configuration not stated)	0.9%	-0.3	3	-21	5.6	8
CCCCC(CC)Cn1c(Oc2ccccc2)nc2c1c(=O)n(C)c(=O)n2C (configuration not stated)	11%	1.0	18	x	x	x
O=C(COc1ccc2ccc(=O)oc2c1)N1CCN(c2ccc(F)cc2)CC1	-2.1%	0.3	-12	-6	1.7	-8
NS(=O)(=O)Cc1noc2ccccc12	-0.2%&1.3%	-0.5&0.1	10&-4	-2&8	-0.4&-3.5	11&6
CCN1CSC(=S)N(Cc2ccc(OC)cc2)C1	22%	-0.2	-9	-16	-7.6	0
CCOc1ccc(NS(=O)(=O)c2cc(NC(=O)c3cccc(C)c3)ccc2Cl)cc1	1.2%	2.8	2	-6	2.3	2
COC(=O)c1ccc2c(=O)n(CCCCCC(=O)N3CCN(c4ccc(Cl)cc4)CC3)c(=O)[nH]c2c1	2.0%	0.4	-15	x	x	x
Cc1cccc(N2CCN(C(=O)c3cccn4c(=O)c5c(C)c(C)sc5nc34)CC2)c1C	2.6%	0.4	-7	9	-0.6	12
COCCNC(=O)C(c1ccc(O)cc1)N(Cc1cccs1)C(=O)CCC(=O)Nc1ccccn1 (configuration not stated)	1.7%	0.1	6	1	4.4	2
COc1ccc(NS(=O)(=O)c2cccc(C(=O)NNC(=O)CNC(=O)c3ccccc3F)c2)cc1	-1.4%	-0.3	64	27	-0.3	-8
CCCN1CCN(C(=O)CCc2nnc3ccc(N4CCN(c5cccc(OC)c5)CC4)nn23)CC1	2.9%	-0.1	17	-4	-6.0	-15
COc1ccc(CNCCc2ccc(Cl)cc2)cc1OCc1ccccc1	-1.5%	-0.1	24	-28	-1.6	-16
NNC(=O)c1nc[nH]c1C(=O)Nc1ccccc1	0.9%	0.1	3	3	-0.6	u
CC(=O)N1CCN(c2ccc(Oc3nc(-c4ccccc4)nc4ccccc34)cc2)CC1	0.7%	-0.4	1	-6	-2.3	5
CCOC(=O)CCCCCC(=O)Nc1ccc2c(c1)C(=O)N([C@@H](C)CO)C[C@@H](C)[C@H](CN(C)C(=O)Nc1ccccc1)OCCCC[C@H](C)O2	1.4%	-0.6	-9	-3	-3.8	10
COC(=O)Cc1cc(=O)n(-c2nc3ccccc3s2)[nH]1	x	2.8	-10	4	-1.3	-9
O=[N+]([O-])c1ccc(N=Nc2c(Cl)cc(O)cc2Cl)cc1	u	2.8	20	-29	7.6	u
